# Polio RdRp inh: inhibitors of poliovirus RNA polymerase binding and polymerization. P03300. poliovirus polymerase elongation, fluorescence polarization; hits give low values. % elongation, % (compound at 16.7 µg/mL). actives 0.66% (n = 150,000); in the data active = % elongation below about 90%; note: some results filed as inactive read as strong as hits
# Target sequence (P03300 1749-2209 limits assumed): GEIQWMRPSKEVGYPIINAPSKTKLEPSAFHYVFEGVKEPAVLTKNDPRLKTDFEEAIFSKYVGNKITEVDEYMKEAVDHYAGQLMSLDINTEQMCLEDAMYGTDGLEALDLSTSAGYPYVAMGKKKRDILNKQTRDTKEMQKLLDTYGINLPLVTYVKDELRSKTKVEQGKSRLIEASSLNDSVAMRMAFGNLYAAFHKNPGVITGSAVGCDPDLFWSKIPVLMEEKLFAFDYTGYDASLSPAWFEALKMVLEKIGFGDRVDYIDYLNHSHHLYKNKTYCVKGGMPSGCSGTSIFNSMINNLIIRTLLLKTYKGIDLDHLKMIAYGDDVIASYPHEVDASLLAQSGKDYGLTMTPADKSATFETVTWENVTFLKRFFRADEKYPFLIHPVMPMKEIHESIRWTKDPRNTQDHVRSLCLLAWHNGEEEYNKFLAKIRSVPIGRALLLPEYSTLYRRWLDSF
# Mtb MbtI inh: inhibitors of Mycobacterium tuberculosis siderophore enzyme MbtI | P9WFX0 | purified MbtI enzyme, fluorescence intensity read-out | inhibition, %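 (about 17 µg/mL by stock and volumes)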 | actives 0.89% (n = 100,000);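 active = above 50% in both replicates, above 80% if mildly self-fluorescent; inactive = the rest, strongly fluorescent compounds included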;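 note: 0% = mean of negative and 100% = mean of positive controls; one replicate is shown; some compounds called inactive have numbers as strong as hits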
# Target sequence (P9WFX0 whole entry, looked up): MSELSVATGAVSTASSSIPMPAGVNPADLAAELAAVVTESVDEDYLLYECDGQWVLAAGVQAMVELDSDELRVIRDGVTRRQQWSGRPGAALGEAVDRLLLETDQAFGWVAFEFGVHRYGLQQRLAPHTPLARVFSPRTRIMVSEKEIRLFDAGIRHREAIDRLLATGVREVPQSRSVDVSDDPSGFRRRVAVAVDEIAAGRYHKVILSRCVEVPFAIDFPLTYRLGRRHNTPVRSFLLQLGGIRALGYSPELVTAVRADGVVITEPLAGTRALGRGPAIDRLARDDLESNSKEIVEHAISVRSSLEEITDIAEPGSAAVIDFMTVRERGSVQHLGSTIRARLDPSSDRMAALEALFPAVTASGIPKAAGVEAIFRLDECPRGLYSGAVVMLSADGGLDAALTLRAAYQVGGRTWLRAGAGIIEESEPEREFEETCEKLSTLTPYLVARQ
# MenB inh: blocks the Mycobacterium tuberculosis MenB enzyme; actives 0.43% (n = 100,000); AID 540299; P9WNP5; inhibition, %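 (about 12 µg/mL by stock and volumes)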; MenB enzyme assay, absorbance read-out; some hits fall short of the stated cut;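 active = mean of two replicates above 30%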;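 note: 0% = no compound and 100% = wells with inactive enzyme; the first replicate is given; strong numbers were not always called active; inactives centre near -10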
# Polio RdRp inh intensity: second read-out of Polio RdRp inh, no call of its own (marks repeat the call); % elongation; measured here: total intensity read-out; formula for this scale not given here;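 total fluorescence in place of polarization; lower means less elongation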
# An asterisk follows results filed as active; i = inactive; . = no result given; & = joins results of further samples. The order is random; 2% or so of the library scored in one or more.
SMILES,Polio RdRp inh,Polio RdRp inh intensity,Mtb MbtI inh,MenB inh
CC1C2CC(CC1(C)C)N(C(=O)c1ccc(N3C(=O)c4ccccc4C3=O)cc1)C2 (stereo unspecified),108,113,.,-7
C1Cc2nnc3c4c(nnc(c24)C1)CCC3,105,104,4,-48
CC(C)N/C=C1/C(=O)c2sccc2N(Cc2ccccc2)S1(=O)=O,102,100,-24,-10
C=CCNC(=O)C1(O)c2ccccc2NC(=O)N1c1ccccc1 (stereo unspecified),107,105,.,-3
O=C(Nc1cccc(-c2noc(-c3ccccc3)n2)c1)c1cccs1,103,102,-4,-10
CC1CCN(C(c2nnnn2Cc2ccccc2)C(C)C)CC1 (stereo unspecified),100,101,-9,-30
COC(=O)CN1C(=O)C(=Cc2ccc(N(C)C)cc2)SC1=S,69,193,3,-31
COC(=O)c1ccc(NC(=O)CSc2nccn2C)cc1,106,115,.,4
O=C(NCCN1CCOCC1)C1CCC(Cn2c(=S)[nH]c3ccccc3c2=O)CC1 (stereo unspecified),100,105,4,-17
CS(=O)(=O)c1ccc(-c2nn[nH]n2)cc1,101,100,0,17
Cc1cccc(-c2noc(CNC(=O)CC(C)(C)C)n2)c1,104,114,-12,6
Cc1sc2c(c1C)CN(Cc1ccccc1)CN2C(=O)c1ccco1,104,105,-9,-18
Cc1ccc2c(c1)sc1nc(=O)ccn12,103,102,116,-15
COC(CNC(=O)CN1CCN(Cc2ccc(F)cc2Cl)C1=O)OC,101,105,-5,5
Fc1cccc(-c2nnn3c2nc(Cl)c2ccccc23)c1,100,101,-3,-8
O=C(NCc1ccccc1)c1cc(-c2ccco2)nc2ccccc12,121,128,103,3
O=C1CN(c2nc(-c3ccc(Cl)cc3)cs2)CCN1,103,106,.,-24
O=C(NC1(O)C(=O)c2ccccc2C1=O)c1ccccc1,67*,61*,-3,2
Fc1ccc(COc2ccccc2CNC2CCCC2)cc1,106,107,.,-14
Cc1ccc2[nH]c(=O)c(CCC(=O)O)c(C)c2c1,102,99,.,-19
N#C/C(=C\c1cccnc1)C(=O)Nc1ccccc1,97,121,13,-32
CCOC(=O)c1ccc(-c2ccc(/C=C(\C#N)C(=O)NC(C)(C)C)o2)cc1,103,106,0,-19
Cn1cc(Br)c(=O)n(C)c1=O,104,96,-1,-20
CCN(CC)C(=O)Cc1ccc(Br)cc1,105,109,.,-12

# Already shown: entries from further up.
SMILES,Polio RdRp inh,Polio RdRp inh intensity,Mtb MbtI inh,MenB inh
O=C(NC1(O)C(=O)c2ccccc2C1=O)c1ccccc1,67*,61*,-3,2
Fc1ccc(COc2ccccc2CNC2CCCC2)cc1,106,107,.,-14
Cc1ccc2[nH]c(=O)c(CCC(=O)O)c(C)c2c1,102,99,.,-19
N#C/C(=C\c1cccnc1)C(=O)Nc1ccccc1,97,121,13,-32
CCOC(=O)c1ccc(-c2ccc(/C=C(\C#N)C(=O)NC(C)(C)C)o2)cc1,103,106,0,-19
Cn1cc(Br)c(=O)n(C)c1=O,104,96,-1,-20
CCN(CC)C(=O)Cc1ccc(Br)cc1,105,109,.,-12

# One compound at a time (already shown):
# COC(CNC(=O)CN1CCN(Cc2ccc(F)cc2Cl)C1=O)OC across the screens: Polio RdRp inh = 101; Polio RdRp inh intensity = 105; Mtb MbtI inh = -5; MenB inh = 5
# Cc1ccc2[nH]c(=O)c(CCC(=O)O)c(C)c2c1 across the screens: Polio RdRp inh = 102; Polio RdRp inh intensity = 99; Mtb MbtI inh = .; MenB inh = -19

# (more compounds)
SMILES,Polio RdRp inh,Polio RdRp inh intensity,Mtb MbtI inh,MenB inh
Nc1cccc(C(=O)N2CCOCC2)c1,104,101,-2,-24
O=C(COC(=O)c1ccc(O)cc1)Nc1cc(C(F)(F)F)ccc1N1CCOCC1,104,104,-7,3
CCNC(=O)C1CCCN(S(=O)(=O)N(CC)c2ccc(OCC)cc2)C1 (stereo unspecified),.,.,-32,2
COc1ccc(N2CCN(Cc3nc4ccsc4c(=O)[nH]3)CC2)cc1,103,105,7,15
CCC(=O)c1ccc(OC(F)F)cc1,100,105,8,-20
CCOC(=O)c1c(C)c(C(=O)N2CC(C)CC(C)C2)c(C)n1C (stereo unspecified),100,102,6,-3
COC(CNc1ncnc2sc3c(c12)CCC3)OC,107,108,-10,-34
O=C(c1cccc(N2CCCC2=O)c1)N1CCC2(CC1)OCCO2,103,103,-3,-3
CC1=CC(=C2C(=O)NC(=S)NC2=O)C=C(C(F)(F)F)N1CCOCCO,102,103,5,-179
CN(c1cccc2cccnc12)S(=O)(=O)c1ccccc1,112,111,.,-20
NS(=O)(=O)c1ccc2ccccc2c1,103,109,-1,.
O=C(COC(=O)c1c2c(nc3ccccc13)CCC2)Nc1ccccc1,102,100,5,.
COc1ccc(C)cc1NC(=O)C1CC1C (stereo unspecified),100,104,3,-20
c1ccc2c(CN3CCN(Cc4ccncc4)CC3)c[nH]c2c1,101,102,-1,-9
CCN1CCN(Cc2ccoc2)CC1,98,103,-6,11
CN(C)c1c(F)cc(C(=O)NCc2ccccc2)cc1F,103,104,-9,5
Cn1cnnc1SCC(=O)Nc1ccccc1,103,100,-6,-1
COC(=O)NC1c2ccccc2Oc2ccc(C)cc21 (stereo unspecified),102,101,0,0
C=CCSc1nc2c(cnn2-c2ccc(C)c(C)c2)c(=O)[nH]1,100,92,6,-3
CCNc1c(NS(=O)(=O)c2ccc(C)cc2)c(=O)oc2ccccc12,101,103,11,-9
CC(Sc1n[nH]c(-c2ccncc2)n1)C(=O)N(C)c1ccccc1 (stereo unspecified),97,94,3,-42
CC(=O)Nc1c(C(=O)N2CCOCC2)sc2nc3c(cc12)COC(C)(C)C3,100,102,5,8
O=C(Nc1ccc(Cl)cc1C(F)(F)F)C(Sc1cccc[n+]1[O-])c1ccccc1 (stereo unspecified),100,103,0,.
CCc1ccc2nc(N3CCC(C(=O)NC4CC4)CC3)sc2c1,100,104,-4,-2
CCC1CN2CCC34c5ccccc5NC3C(C)C1CC24 (stereo unspecified),.,.,-6,-4
O=C(CSc1ncccn1)c1ccc(O)c(O)c1,103,102,8,-2
Cc1cc(/C=N/NC(=O)c2ccncc2)c(C)n1-c1ccccc1,102,102,8,-24
Cc1ccc(C(C)C)c(OCC(=O)Nc2cc(-c3nc4ncccc4o3)ccc2C)c1,102,105,1,-15
COc1ccc(CC(=O)N2N=C(C)CC2(O)C(F)(F)F)cc1 (stereo unspecified),105,104,.,-17
O=C(CCc1nc2ccccc2c(=O)[nH]1)N(Cc1nnc(-c2ccccc2Cl)o1)C1CC1,106,108,4,-23
CS(=O)(=O)Nc1ncnc2sccc12,114,118,-6,-28
CCN(C(=O)CSc1nccn1C)c1ccccc1,101,105,-16,.
N#Cc1ccc(NC(=O)c2cc(C3CC3)nn2-c2ccccc2)cc1,100,102,104,-8
O=S(=O)(c1ccccc1)N1CCC(N2CCCCC2)CC1,103,107,-6,-3
CCOc1ccc(C(=O)OCC(=O)N2CCCCC2)cc1,108,96,.,6
CCOc1ccc(Oc2cc(NC(=O)c3ccc(F)cc3)cc(NC(=O)c3ccc(F)cc3)c2)cc1,106,110,.,0
Cn1c(N)c(C(=O)CN2CCN(S(=O)(=O)/C=C/c3ccccc3)CC2)c(=O)n(C)c1=O,96,97,-3,-6
Cc1ccc(NC(=O)Cn2c(=O)/c(=C/c3ccc(N(C)C)cc3)s/c2=C\C#N)cc1,164,169,16,10
CCOC(=O)c1c(NS(=O)(=O)c2ccc(Br)cc2)sc2c1CCC(C)C2 (stereo unspecified),107,110,.,7
COc1ccc(-c2cc(C(=O)NCC3CCCO3)on2)cc1OC (stereo unspecified),102,102,-14,14
N=C1/C(=C/c2ccc(SC3CCCCC3)o2)C(=O)N=C2SC=CN12,115,114,16,-62
CCOc1ccc2c(c1)SC1=NC(C(F)(F)F)(C(F)(F)F)NC(=O)N12,100,105,-8,-20
COC(=O)Cc1[nH]n(-c2ccccc2)c(=O)c1C=Nc1ccc(C)cc1,100,103,2,-11
CCn1cc(CCCC(=O)NCCC2=CCCCC2)c2ccccc21,105,105,2,-25
COc1ccc(C(=O)CN2CCCc3cc(C)ccc32)cc1,114,133,1,6
CC(C)S(=O)(=O)/C(C#N)=C/Nc1ncccn1,106,102,13,7
Cc1cc(CC(=O)O)n(C)c1C(=O)c1ccc(Cl)cc1,100&100,101&100,-4&-22,-1&-3
Cn1c(=N)n(CC(=O)C23CC4CC(CC(C4)C2)C3)c2ccccc21,106,113,.,-12
Cc1cc(C)cc(CC(C(=O)O)C(C)C(=O)Nc2cccc(C(F)(F)F)c2)c1 (stereo unspecified),103,106,0,-17
CN(C)c1nc(SCC(N)=O)nc(N(C)C)n1,100,101,-1,-5
COc1ccc(/C=[N+](\C)[O-])c(OC)c1,100,108,9,3
CCOC(=O)c1c(CSc2ccsc2)n(C)c2cc(Br)c(O)c(CN(C)C)c12,103,105,-1,-2
CC(Oc1ccc(F)cc1)C(=O)NCc1ccncc1 (stereo unspecified),109,111,.,-8
COc1cccc(NC(=O)CN(C)CC(=O)Nc2cccc(Br)c2)c1,98,86,-22,-34
Cc1ccc(SCC(=O)NCCCN2CCCC2=O)c(C)c1,108,111,9,0
O=C(NCCN1CCCC1)c1ccc(Cl)cc1,105,103,-4,-75
O=C(c1noc2c1CCc1sccc1-2)N1CCc2ccccc21,102,99,17,-16
O=C(Cn1cnc2c(nnn2Cc2ccccc2)c1=O)c1ccccc1,100,103,14,-14
CC1CCCCN1S(=O)(=O)c1ccc(F)c(C(=O)Nc2c(F)cc(F)cc2Br)c1 (stereo unspecified),101,105,-3,5
CN1C(=O)CC(c2ccco2)Sc2ccccc21 (stereo unspecified),101,102,11,-13
# Next entries follow.
SMILES,Polio RdRp inh,Polio RdRp inh intensity,Mtb MbtI inh,MenB inh
CC1S/C(=N\N=C/C23CC4CC(CC(C4)C2)C3)NC1=O (stereo unspecified),101,95,-5,-18
Cc1nnc(SCC(=O)c2ccc(Cl)cc2)s1,95,97,.,-18
c1ccc(NCC2OCc3ccccc3CO2)cc1,102,107,-13,-13
CC(=O)Oc1ccc(-c2nc(-c3ccccc3)no2)cc1,101,101,-9,-20
COc1ccc2c(c1)c1c3n2CCN(C)C3=NCC1,106,100,31,2
CC(Sc1nnc(-c2ccco2)n1C(C)C1CC2CCC1C2)C(N)=O (stereo unspecified),101,90,-7,-32
Cc1cccc(C)c1N=C(NO)c1nonc1N,102,98,-2,-12
CCSc1nc2c(c(=O)n1CC)C1(CCCC1)Cc1ccccc1-2,100,104,6,-19
COC(=O)c1c(Cc2cccc(C(F)(F)F)c2)c[nH]c1C,.,.,-12,-23
O=C(Nc1nnc(-c2ccc(Cl)cc2)o1)C1CC1,105,105,69,-11
O=C(NCCc1c[nH]c2ccccc12)c1cc2c(s1)CCC2,102,106,7,.
O=C(COc1ccc(Cl)cc1Cl)NC(=O)NC1CCCC1,107,109,-13,-16
CCOC(=O)c1c(NC(=O)c2cc(-c3ccc4c(c3)OCO4)on2)sc2c1CCCC2,96,101,57,-44
Cc1nc2ccccn2c(=O)c1NC(=O)C(C)C,105,105,2,-1
CCN1CCC(=NNC(=O)COc2ccc(Cl)cc2Cl)CC1,105,94,0,-24
N#CCc1c(C#N)c(N)nc(Nc2ccccc2)c1C#N,44,234,i,-10
O=C(NCCN1CCN(C(=O)Nc2ccccc2)CC1)Nc1ccccc1,102,102,17,9
CC(=O)OC1C(=O)OC2C1OC(n1ccc(=O)[nH]c1=O)C2OC(C)=O (stereo unspecified),105,110,.,-6
O=C(OCC(=O)N1CCOCC1)c1cc(F)c(F)cc1Cl,98,97,-13,.
CCOC(=O)c1cc2c(ccn2-c2ccc(F)cc2)n1CC(=O)c1ccc2c(c1)OCCO2,102,115,-8,-52
C=CCOc1ccc2ccc(=O)oc2c1,108,112,.,-8
CC(=O)NC(Cc1ccccc1)C(=O)NC1CCN(C(=O)c2ccccc2)CC1 (stereo unspecified),98,107,-5,-76
CC1CCN(CC(=O)Nc2cccc(C(F)(F)F)c2)CC1,100,100,-20,-17
CNc1nc2c(Cl)cc(Cl)cc2s1,102,93,-2,5
COc1nc2ccccc2nc1CCC(=O)NC1CCCCCC1,103,104,-17,-22
CC(C)N(C(=O)CSc1nnc2sc3ccccc3n12)c1ccccc1,98,106,-2,-8
COC(=O)CC1(CC(=O)OC)C(=O)N(C)C(=O)N(C)C1=O,102,104,-11,-72
CCc1ccc(NC2=NCCS2)cc1,95,101,-4,8
Cc1ccc(CN2CCC(CNc3ncnc4onc(C)c34)CC2)cc1,103,100,3,-27
Cc1noc(C)c1COC(=O)c1cccnc1SCC(=O)Nc1ccccc1OC(F)F,104,90,-4,-45
Cc1c(Cl)cccc1NC(=S)N(CCN(C)C)C1CCN(C(C)C)CC1,100,104,-28,3
[N-]=[N+]=c1c(=O)ccc2c(=O)c3ccccc3c(=O)c1=2,82*,109*,-3,-45
Cc1nc(=S)sn1-c1nc(Nc2ccccc2)nc(Nc2ccccc2)n1,102,102,-1,-11
O=C(NC(=S)NCCC1=CCCCC1)c1ccco1,105,109,-1,-18
COc1ccc(OC)c2c(C)cc(N3CCN(C(=O)c4ccc(Cl)cc4)CC3)nc12,99,100,6,5
O=C(CN1CCN(Cc2ccccc2)C1=O)NC1CCCCCCC1,101,105,-6,1
CCS(=O)(=O)Nc1cc(C(=O)OC)ccc1C,105,102,-4,-7
O=C(Nc1ccc(N2CCN(c3ccc(C(F)(F)F)cn3)CC2)nc1)c1cccs1,106,107,-8,-15

# Screening data as filed in PubChem.
